UUG fidelity: alters start codon recognition fidelity in yeast. S. cerevisiae UUG-firefly luciferase reporter, luminescence/redox ratio. activity score, % at 18.7 µM. actives 0.13% (n = 350,000). AID 602363;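 active = replicate mean at a twofold rise or more, about +100% in these data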;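 also: firefly luciferase made from a UUG start codon reports start codon fidelity; reporter light over untreated wells divided by growth signal over untreated wells; some hits fall short of that in this replicate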
* hit, by the source's call.

CCC(=O)N1[C@@H]2CN(S(=O)(=O)c3ccccc3F)c3ccccc3[C@@H]2[C@@H]1CO
  UUG fidelity = 10
CN1C(=O)c2cc(NC(=O)Nc3ccc(F)cc3)ccc2OC[C@H]2O[C@H](CC(=O)NC3CCC3)CC[C@@H]21
  UUG fidelity = 12
O=C(C[C@@H]1C[C@@H]2c3cc(NC(=O)Nc4ccc(F)cc4)ccc3O[C@@H]2[C@H](CO)O1)NCC1CC1
  UUG fidelity = -7
CC(C)NC(=O)Nc1ccc2c(c1)CC(=O)N([C@@H](C)CO)C[C@H](C)[C@H](CN(C)C(=O)Nc1ccc(C(F)(F)F)cc1)O2
  UUG fidelity = -3
CC(=O)N1[C@H](CO)[C@@H](c2ccccc2)[C@@H]1CNC(=O)CN1CCOCC1
  UUG fidelity = -5
C[C@H](CO)N1C[C@H](C)[C@@H](CN(C)C(=O)Nc2ccccc2)Oc2ccc(N(C)C)cc2C1=O
  UUG fidelity = -7
CCCNC(=O)Nc1ccc2c(c1)C(=O)N(C)C[C@H](OC)[C@H](C)CN(C(=O)C1CCOCC1)[C@H](C)CO2
  UUG fidelity = -4
C[C@H]1CN([C@@H](C)CO)C(=O)c2cccc(NS(C)(=O)=O)c2O[C@H]1CN(C)S(=O)(=O)c1cccs1
  UUG fidelity = 3
CCCC#Cc1ccc([C@@H]2[C@H]3CN(Cc4cncnc4)CCCCN3[C@H]2CO)cc1
  UUG fidelity = 3
CO[C@@H]1CN(C)C(=O)c2cc(NC(=O)C3CCOCC3)ccc2OC[C@@H](C)N(Cc2nccs2)C[C@H]1C
  UUG fidelity = 1
O=C(C[C@@H]1CC[C@H]2[C@@H](COC[C@@H](O)CN2Cc2cccc(Cl)c2)O1)NCc1cccc(F)c1
  UUG fidelity = 10
CO[C@H]1CN(C)C(=O)c2ccc(NC(=O)C3CCCCC3)cc2OC[C@@H](C)N(C)C[C@H]1C
  UUG fidelity = 3
CN1c2ccc(-c3ccc(F)cc3)cc2[C@H]2[C@H](CCN2S(=O)(=O)c2cccc(F)c2)[C@@H]1CO
  UUG fidelity = -7
CN(C)C(=O)c1ccc(-c2ccc3c(c2)[C@@H]2[C@@H](CCN2S(=O)(=O)c2cn(C)cn2)[C@H](CO)N3)cc1
  UUG fidelity = -14
CO[C@@H]1CN(C)C(=O)c2ccc(NC(=O)C3CCCC3)cc2OC[C@H](C)N(C(C)=O)C[C@H]1C
  UUG fidelity = 4
O=C(NC[C@@H]1[C@@H](c2ccccc2)[C@H](CO)N1Cc1ccccn1)C1CC1
  UUG fidelity = -18
Cc1ccccc1S(=O)(=O)N1CC[C@@H]2[C@@H](CO)Nc3ccc(-c4cccc(F)c4)cc3[C@@H]21
  UUG fidelity = 2
CO[C@@H]1CN(C)C(=O)c2cc(NC(=O)c3ccc(F)cc3)ccc2OC[C@H](C)N(C(C)=O)C[C@H]1C
  UUG fidelity = -11
O=C(c1ccccc1)N1CC[C@@H]2[C@H](CO)Nc3ccc(C#Cc4cccnc4)cc3[C@@H]21
  UUG fidelity = -15
COc1ccccc1CN1CC[C@@H]2[C@@H](CO)Nc3ccc(-c4ccc(C(=O)N(C)C)cc4)cc3[C@@H]21
  UUG fidelity = 1
COCC(=O)Nc1ccc2c(c1)[C@@H]1C[C@@H](CC(=O)NCc3ccccc3OC)O[C@H](CO)[C@@H]1O2
  UUG fidelity = -13
COCC(=O)N(C[C@@H]1[C@@H](c2ccccc2)[C@@H](CO)N1C(=O)NC(C)C)C(C)C
  UUG fidelity = -22
COc1ccc(NC(=O)N2CCCCN3[C@H](CO)[C@@H](c4ccc(C#Cc5ccccn5)cc4)[C@@H]3C2)cc1
  UUG fidelity = 13
COc1cccc(-c2ccc([C@@H]3[C@@H](CO)N4CCCCN(C(=O)c5ccc6c(c5)OCO6)C[C@H]34)cc2)c1
  UUG fidelity = 10
C/C=C/c1ccc([C@H]2[C@@H](CO)N(Cc3ccccn3)[C@@H]2CNC(C)=O)cc1
  UUG fidelity = -6

Sorted by value in UUG fidelity (falling): some entries from above.
COc1cccc(-c2ccc([C@@H]3[C@@H](CO)N4CCCCN(C(=O)c5ccc6c(c5)OCO6)C[C@H]34)cc2)c1
  UUG fidelity = 10
O=C(C[C@@H]1C[C@@H]2c3cc(NC(=O)Nc4ccc(F)cc4)ccc3O[C@@H]2[C@H](CO)O1)NCC1CC1
  UUG fidelity = -7
O=C(NC[C@@H]1[C@@H](c2ccccc2)[C@H](CO)N1Cc1ccccn1)C1CC1
  UUG fidelity = -18

New compounds follow
CO[C@H]1CN(C)C(=O)c2ccc(NC(=O)C3CC3)cc2OC[C@@H](C)N(C(=O)CN(C)C)C[C@@H]1C
  UUG fidelity = -9
C[C@H](CO)N1C[C@H](C)[C@@H](CN(C)C(=O)Nc2ccccc2)Oc2ccc(NS(=O)(=O)c3ccc(Cl)cc3)cc2CC1=O
  UUG fidelity = 10
O=C(c1ccccn1)N1C[C@H]2[C@@H](c3ccccc31)[C@H](CO)N2C(=O)c1ccccn1
  UUG fidelity = -14
C[C@@H]1CN([C@H](C)CO)C(=O)c2cccc(NC(=O)Nc3ccc(C(F)(F)F)cc3)c2O[C@@H]1CN(C)S(=O)(=O)c1cn(C)cn1
  UUG fidelity = 4
CCCNC(=O)N1C[C@H](C)[C@@H](OC)CN(C)C(=O)c2cc(NS(=O)(=O)CC(F)(F)F)ccc2OC[C@H]1C
  UUG fidelity = -9
CO[C@H]1CN(C)C(=O)c2cc(NC(=O)c3nc4ccccc4s3)ccc2OC[C@@H](C)N(Cc2cccnc2)C[C@H]1C
  UUG fidelity = 5
O=S(=O)(c1ccccc1)N1CC[C@@H]2[C@H](CO)Nc3ccc(C#Cc4ccccc4F)cc3[C@@H]21
  UUG fidelity = -15
CCCC(=O)N1C[C@H]2[C@@H](c3ccccc31)[C@@H](CO)N2C(=O)Nc1ccccc1
  UUG fidelity = 42
COc1ccccc1CNC(=O)C[C@H]1CC[C@@H]2[C@H](COc3ccc(NC(=O)Nc4ccc(F)c(F)c4)cc3C(=O)N2C)O1
  UUG fidelity = -5
Cc1noc(C)c1S(=O)(=O)Nc1ccc2c(c1)CC(=O)N([C@H](C)CO)C[C@@H](C)[C@H](CN(C)C)O2
  UUG fidelity = 10
Cc1noc(C)c1NC(=O)N(C)C[C@@H]1Oc2c(NC(=O)c3ccncc3)cccc2C(=O)N([C@@H](C)CO)C[C@@H]1C
  UUG fidelity = -7
O=C(Nc1ccc(Cl)cc1)N1C[C@H]2[C@@H](c3ccccc31)[C@@H](CO)N2C(=O)C1CC1
  UUG fidelity = -11
CN1c2ccc(Br)cc2[C@@H]2[C@@H](CCN2S(=O)(=O)c2cccc(F)c2)[C@@H]1CO
  UUG fidelity = -8
COCC(=O)N1C[C@H](C)[C@H](OC)CN(C)C(=O)c2cc(NC(=O)c3ccc(F)cc3)ccc2OC[C@@H]1C
  UUG fidelity = 16
CN1C(=O)c2cc(NC(=O)C3CCCC3)ccc2OC[C@@H]2O[C@H](CC(=O)NCC(F)(F)F)CC[C@@H]21
  UUG fidelity = 8
CCCN1C[C@H](C)[C@H](OC)CN(C)C(=O)c2ccc(NC(=O)c3cccc(F)c3)cc2OC[C@H]1C
  UUG fidelity = 11
O=C(CN1CCOCC1)N1CCCCN2[C@@H](CO)[C@H](c3ccc(-c4ccccc4F)cc3)[C@@H]2C1
  UUG fidelity = -19
C/C=C/c1ccc([C@@H]2[C@@H](CO)N3CCCCN(S(=O)(=O)c4cccs4)C[C@H]23)cc1
  UUG fidelity = 0
C[C@H]1CN([C@@H](C)CO)C(=O)c2cc(NC(=O)CCC(F)(F)F)ccc2O[C@@H]1CN(C)S(=O)(=O)c1cn(C)cn1
  UUG fidelity = 11
O=C(c1cnccn1)N1CC[C@@H]2[C@H](CO)Nc3ccc(C#Cc4cccnc4)cc3[C@@H]21
  UUG fidelity = -22
CCC(=O)N1[C@H](CN(CC)C(=O)c2ccccc2)[C@@H](c2ccccc2)[C@@H]1CO
  UUG fidelity = 7
O=C(C[C@H]1C[C@@H]2c3cc(NC(=O)NC4CCCC4)ccc3O[C@@H]2[C@H](CO)O1)NCc1ccc(Cl)cc1
  UUG fidelity = -1
Cn1cnc(S(=O)(=O)N2CCCCN3[C@H](C2)[C@H](c2ccc(C4=CCCC4)cc2)[C@@H]3CO)c1
  UUG fidelity = -7
CS(=O)(=O)Nc1ccc2c(c1)[C@H]1C[C@H](CC(=O)N3CCOCC3)O[C@H](CO)[C@H]1O2
  UUG fidelity = -15
O=C(C[C@@H]1CC[C@@H]2[C@H](COC[C@@H](O)CN2S(=O)(=O)c2ccc(F)cc2)O1)NCCN1CCCCC1
  UUG fidelity = -2

COc1ccccc1C(=O)N1C[C@@H]2[C@H](c3ccccc31)[C@@H](CO)N2C(=O)Cc1ccccc1
  UUG fidelity = -3
C[C@H](CO)N1C[C@H](C)[C@H](CN(C)S(=O)(=O)c2ccccc2)Oc2ccc(NC(=O)CCN3CCOCC3)cc2C1=O
  UUG fidelity = -4
Cn1cnc(S(=O)(=O)N2CCCCN3[C@H](CO)[C@@H](c4ccc(C5=CCCC5)cc4)[C@H]3C2)c1
  UUG fidelity = -8
CC(C)NC(=O)N(C)C[C@H]1Oc2ccc(NC(=O)CCC(F)(F)F)cc2CC(=O)N([C@H](C)CO)C[C@@H]1C
  UUG fidelity = 1
O=C(c1ccccc1F)N1C[C@H]2[C@@H](c3ccccc31)[C@@H](CO)N2C(=O)c1ccncc1
  UUG fidelity = -11
CC(C)NC(=O)N1[C@H](CN(C)C(=O)c2cccnc2)[C@@H](c2ccccc2)[C@@H]1CO
  UUG fidelity = 5
CCC(=O)Nc1ccc2c(c1)C(=O)N(C)C[C@H](OC)[C@@H](C)CN[C@H](C)CO2
  UUG fidelity = 4
C/C=C/c1ccc([C@H]2[C@@H](CO)N(C(=O)C3CC3)[C@H]2CNC(=O)NC(C)C)cc1
  UUG fidelity = -10
COc1ccc(S(=O)(=O)Nc2ccc3c(c2)C(=O)N([C@H](C)CO)C[C@H](C)[C@H](CN(C)Cc2ccncc2)O3)cc1
  UUG fidelity = -11
CO[C@H]1CN(C)C(=O)c2ccc(NC(=O)c3ccc4c(c3)OCO4)cc2OC[C@@H](C)NC[C@@H]1C
  UUG fidelity = -4
O=C(C[C@H]1CC[C@@H]2[C@H](COC[C@@H](O)CN2S(=O)(=O)c2ccc(F)cc2)O1)NCc1ccc(Cl)c(Cl)c1
  UUG fidelity = 4
O=C(CC1CC1)N1CC[C@H]2[C@H](CO)Nc3ccc(-c4ccccc4)cc3[C@H]21
  UUG fidelity = 4
O=C(C1CCCC1)N1C[C@H]2[C@@H](c3ccccc31)[C@H](CO)N2C(=O)c1ccccc1F
  UUG fidelity = 3
C[C@H](O)C#Cc1ccc([C@@H]2[C@@H](CO)N3CCCCN(C(=O)c4ccc5c(c4)OCO5)C[C@H]23)cc1
  UUG fidelity = -3
O=C(C[C@H]1CC[C@H]2[C@@H](COC[C@@H](O)CN2CC2CCCCC2)O1)NCC1CC1
  UUG fidelity = 14
O=C(C1CCOCC1)N1CC[C@@H]2[C@H]1c1cc(Br)ccc1N[C@@H]2CO
  UUG fidelity = 13
Cc1ccc(S(=O)(=O)N(C)C[C@H]2Oc3ccc(NC(=O)Nc4ccccc4)cc3C(=O)N([C@@H](C)CO)C[C@H]2C)cc1
  UUG fidelity = 15
COCC(=O)N1CCCCN2[C@@H](CO)[C@H](c3ccc(-c4ccc(C)cc4)cc3)[C@@H]2C1
  UUG fidelity = 6
CO[C@@H]1CN(C)C(=O)c2cc(NC(=O)C3CCC3)ccc2OC[C@@H](C)N(Cc2nccs2)C[C@H]1C
  UUG fidelity = -8
O=C(C[C@H]1CC[C@H]2[C@@H](COC[C@@H](O)CN2C(=O)c2ccc3c(c2)OCO3)O1)NC1Cc2ccccc2C1
  UUG fidelity = -1
O=C(C[C@@H]1CC[C@H]2[C@@H](COC[C@H](O)CN2S(=O)(=O)c2cccc(F)c2)O1)NCCCN1CCOCC1
  UUG fidelity = -11
CS(=O)(=O)N1CCCCN2[C@H](C1)[C@H](c1ccc(Br)cc1)[C@@H]2CO
  UUG fidelity = -2
CC(C)NC(=O)N(C)C[C@H]1Oc2c(NC(=O)Nc3ccc(F)cc3)cccc2C(=O)N([C@@H](C)CO)C[C@H]1C
  UUG fidelity = 7
O=C(Nc1ccc(-c2ccccc2)cc1)[C@@H]1[C@@H](CO)[C@@H]2Cn3c(cccc3=O)[C@@H]2N1CC1CCCCC1
  UUG fidelity = -18
Cn1cnc(S(=O)(=O)N2CC[C@H]3[C@H](CO)Nc4ccc(-c5ccccc5F)cc4[C@H]32)c1
  UUG fidelity = -1

C[C@H]1CN([C@@H](C)CO)C(=O)c2cccc(NC(=O)Nc3ccc4c(c3)OCO4)c2O[C@H]1CN(C)S(=O)(=O)c1cccs1
  UUG fidelity = 8
C[C@H](CO)N1C[C@H](C)[C@@H](CN(C)C)Oc2ccc(NS(=O)(=O)c3cn(C)cn3)cc2C1=O
  UUG fidelity = 9
CC(=O)N1[C@@H](CO)[C@@H](c2ccc(-c3cccc(F)c3)cc2)[C@@H]1CNC(=O)C1CC1
  UUG fidelity = -3
O=C(c1ccccn1)N1CC[C@@H]2[C@H](CO)Nc3ccc(C#Cc4cccnc4)cc3[C@@H]21
  UUG fidelity = 8
CO[C@@H]1CN(C)C(=O)c2cc(NC(=O)C3CCCCC3)ccc2OC[C@@H](C)N(C)C[C@H]1C
  UUG fidelity = -10
CNC(=O)C[C@@H]1CC[C@@H]2[C@H](COC[C@H](O)CN2C(=O)Nc2ccc(Cl)c(Cl)c2)O1
  UUG fidelity = 0
CCN(C[C@@H]1N[C@H](CO)[C@H]1c1ccc(C2=CCCC2)cc1)C(=O)c1ccncc1
  UUG fidelity = -12
CCC(=O)N1CCCCN2[C@@H](CO)[C@@H](c3ccc(C#Cc4ccccc4F)cc3)[C@@H]2C1
  UUG fidelity = -3
COc1ccc(S(=O)(=O)N(C)C[C@H]2Oc3c(NC(=O)c4cc(C)nn4C)cccc3C(=O)N([C@@H](C)CO)C[C@H]2C)cc1
  UUG fidelity = -6
COCC(=O)N1C[C@@H](C)[C@@H](OC)CN(C)C(=O)c2ccc(NC(=O)c3cc(C)on3)cc2OC[C@H]1C
  UUG fidelity = -1
CC(C)NC(=O)N1CCCCN2[C@H](CO)[C@@H](c3ccc(Br)cc3)[C@H]2C1
  UUG fidelity = 12
O=C(C1CCOCC1)N1C[C@@H]2[C@H](c3ccccc31)[C@H](CO)N2Cc1ccccc1Cl
  UUG fidelity = 22
C[C@@H](O)C#Cc1ccc([C@H]2[C@@H](CO)N3CCCCN(C(=O)Nc4ccccc4)C[C@H]23)cc1
  UUG fidelity = 28

Screening data (PubChem)

This is a subset, so the mix of outcomes need not match the whole.
